VDR inh = blocks the human vitamin D receptor | AID 504847 | Potency, µM, for the others: max response, negative = inhibition, most hits filed as inhibitors | P11473 | 0.93% of 400,000 active | VDR-SRC2-3 peptide fluorescence polarization, 2 h; active = well fitted inhibition curve with a large enough effect; inconclusive = small, poorly fitted or top-dose-only effect, or another doubt; inactive = no such curve, though single readings can be large or run the other way; note: series mostly up to about 120 µM
Target sequence (P11473 whole entry, looked up): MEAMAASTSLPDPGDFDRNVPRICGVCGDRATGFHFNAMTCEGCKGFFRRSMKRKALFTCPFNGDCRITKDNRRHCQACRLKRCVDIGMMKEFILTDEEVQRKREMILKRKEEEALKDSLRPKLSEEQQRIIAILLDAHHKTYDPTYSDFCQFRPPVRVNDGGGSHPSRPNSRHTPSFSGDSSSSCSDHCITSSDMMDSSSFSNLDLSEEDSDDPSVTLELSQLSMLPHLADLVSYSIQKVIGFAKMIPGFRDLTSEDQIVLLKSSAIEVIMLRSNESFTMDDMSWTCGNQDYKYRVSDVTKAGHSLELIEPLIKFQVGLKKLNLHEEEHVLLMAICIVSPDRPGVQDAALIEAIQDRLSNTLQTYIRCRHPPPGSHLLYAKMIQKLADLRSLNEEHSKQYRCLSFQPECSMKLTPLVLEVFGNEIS
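Signal is fluorescence polarization, reporting how far test compounds block the interaction of VDR with the SRC2-3 coregulator peptide after a 2 h room-temperature incubation.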
* hit, by the source's call; ? = inconclusive; & = joins results of further samples. % is set by controls: 0 for no effect and ±100 for the full control effect; potency is the fitted concentration of half-maximal effect. These rows are one share of the data (hit frequency here may not be typical).

SMILES	VDR inh
CCC(=O)Nc1sc(C(=O)Nc2ccccc2OC)c(C)c1C(=O)OC	-12.1%
N#Cc1ccc(CSc2nnc(-c3ccncc3)n2CCc2ccccc2)cc1	0.6%
CCN1C(=O)/C(=C\c2ccc3c(c2)OCO3)C(C(=O)OC)=C1C	-12.9%
CCCNC(=O)c1c2c(nc3ccccc13)C(=O)N(C1CCCCC1)C2	9.5%
Cc1nnc(SCC(=O)N2CCCc3ccccc32)[nH]c1=O	-10.6%
COc1ccc([N+](=O)[O-])cc1CSc1nnc(NC(C)=O)s1	2.2%
Cc1cccc(NC(=O)CSc2nnc(NC(=O)Nc3ccccc3)s2)c1C	0.1%
CCNS(=O)(=O)c1ccc(NC(=O)Cc2ccc(F)cc2)cc1	4.1%
CC1=C(C(=O)N2CCN(c3cccc(Cl)c3)CC2)C2(CCCCC2)OC1=O	12.9%
CN(CC(=O)OCC(=O)NC(=O)c1cccn1C)S(=O)(=O)c1ccc(Cl)cc1	4.9%
Cc1ccc(NC(=O)CNC(=O)c2ccc(C)o2)cc1	-13.7%
O=C(Cc1ccccc1)Nc1ccc(NC(=S)NC(=O)c2ccccc2)cc1	-24.8%
COCCN(CCOC)S(=O)(=O)c1ccc(/C(O)=C(\C#N)c2nc3ccccc3[nH]2)cc1	-8.4%
COc1ccc(C2=C(C)C(=NCCCN3CCN(c4cc(C)ccc4C)CC3)NS2(=O)=O)cc1	4.9%
O=C(NCC(c1cccs1)N1CCOCC1)C1CCN(S(=O)(=O)c2ccccc2C(F)(F)F)CC1 (centres undefined)	-7.6%
Cc1ccc(NCC(=O)N/N=C/c2ccncc2)cc1	13.4%
Cc1ccc(NC(=O)C2CCCN2S(=O)(=O)c2cccc3cccnc23)cc1F (centres undefined)	-4.8%
O=C(CCCOc1ccc(Cl)cc1)N1CCOCC1	-29.2%
O=C(Nc1ccc(S(=O)(=O)Nc2nccs2)cc1)c1ccccc1OC(F)F	-10.3%
COc1ccc(OCCNc2cc(Cl)ccc2[N+](=O)[O-])cc1	16.5%
CCCNC(=O)NC(=O)CSc1nc2cc(C(=O)OC)ccc2c(=O)n1-c1ccccc1	11.1%
CSCCCN1CCC(n2nccc2NC(=O)CCCc2ccccc2)CC1	-0.1%
Cc1ccc(CN2c3ccccc3-c3nc(SCC(=O)Nc4c(C)cc(C)cc4C)ncc3S2(=O)=O)cc1	8.5%
Cc1ccc(-c2nnc(C)c(N3CCOCC3)n2)cc1	-6.3%
Nc1nonc1OCCN1CCN(c2ccc([N+](=O)[O-])c3cccnc23)CC1	-6.8%
Carrying on.
SMILES	VDR inh
CCc1c(C)c(C#N)c2nc3ccccc3n2c1Nc1cccc(C(F)(F)F)c1	-5.9%
COc1ccc(N(CC(=O)NC2CCCCC2)C(=O)c2ccc(C)s2)cc1OC	-14.2%
O=C(Nc1cc(=O)[nH]c2ncnn12)c1ccco1	-2.3%
CC1=CC(=O)N(c2cccc3c(N4C(=O)C=C(C)C4=O)cccc23)C1=O	-11.0%
O=C(CCCn1c(=O)[nH]c2ccsc2c1=O)N1CCN(Cc2ccc3c(c2)OCO3)CC1	4.1%
COc1ccc(N2CCN(C(=O)c3ccc(NS(=O)(=O)c4cccc(F)c4)cc3)CC2)cc1	-3.5%
Cc1ccc(C)c(NS(=O)(=O)c2cc3c4c(c2)CC(=O)N4CCC3)c1	-8.8%
COc1ccc(CCN2CCCC(CN(C)Cc3cc(OC)c(OC)c(OC)c3)C2)cc1 (centres undefined)	-6.5%
CCc1ccc(OCC(=O)N(Cc2ccc(OC)cc2)C2CCS(=O)(=O)C2)cc1 (centres undefined)	2.5%
CNC(=O)COc1ccc(Nc2nnc(-c3ccc(C)c(S(N)(=O)=O)c3)c3ccccc23)cc1	-11.1%
COC(=O)c1nn(-c2c(C)n(C)n(-c3ccccc3)c2=O)cc1O	-26.7%
COC(=O)[C@@]1(C)[C@H]2C(=O)N(Cc3ccccc3)C(=O)[C@H]2[C@H]2CN(C)C(=NC3CCCCC3)N21	-0.8%
CC(C)n1nc(C(=O)Nc2cccc(S(=O)(=O)N3CCOCC3)c2)c2ccccc2c1=O	-9.2%
Cc1sc(NC(=O)CSc2nnc(C)c(=O)[nH]2)c(C#N)c1C	-14.4%
CC(=O)Nc1ccc(C(=O)OCc2ccc(Br)cc2)cc1	-2.2%
COc1ccc(CN(Cc2cccnc2)S(=O)(=O)c2ccc(-n3cnnn3)c(OC)c2)cc1	4.4%
CC#CCOC(=O)c1c(C)nc2sc3c(c2c1N)CCC(O)C3 (centres undefined)	2.5%&-6.4%
O=C(OCC(=O)N1CCc2ccccc2C1)c1ccc(O)cc1	4.1%
Cc1occc1-c1n[nH]c(=S)n1C	-7.1%
O=c1[nH]c(O)c(/C=C2\C=Nc3ccc(Br)cc32)[nH]1	-9.5%
COC(=O)c1ccccc1NC(=O)NCc1ccncc1	-1.6%
Cc1ccc(C(=O)NC(Cc2ccc(C(C)(C)C)cc2)C(=O)O)cc1 (centres undefined)	4.4%
O=S(=O)(Nc1ccc(Cl)cn1)c1ccccc1	13.7%
CCSc1nnc(NC(=O)Cn2cnc3ccccc3c2=O)s1	-29.5%
CC(=O)OCC(=O)[C@@]1(OC(C)=O)[C@@H](C)C[C@H]2[C@@H]3C[C@H](F)C4=CC(=O)C=C[C@]4(C)[C@@]3(F)[C@@H](O)C[C@@]21C	-12.4%&6.6%
The listing continues:
SMILES	VDR inh
Cc1n[nH]c(=O)c2c(NC(=O)CSc3nnc(-c4ccco4)n3C)oc(C)c12	-18.4%
Cc1cc2c(cc1S(=O)(=O)CCC(=O)Nc1cccc(C(F)(F)F)c1)OCC(=O)N2	-15.3%
COc1cc(-c2nnc(-c3cc(-c4ccccc4)nc4ccccc34)o2)cc(OC)c1OC	-5.4%
COc1ccc(S(=O)(=O)N2CCCCC2)cc1NC(=O)CN1C(=O)NC(C)(C2CC2)C1=O (centres undefined)	-26.4%
COc1ccc(CCNC(=O)Cc2c(C)c3ccc(O)c(C)c3oc2=O)cc1OC	8.4%
OCCN1CCN(c2nc(-c3ccccc3)c3cc(Br)ccc3n2)CC1	-5.5%
COc1cc(C(=O)NCC(=O)OCC(=O)c2ccc[nH]2)cc(OC)c1OC	-8.3%
O=C(CSc1nnc(-c2cccs2)o1)OCc1ccccc1	?
CC(C)c1ccc(CN(C(=O)/C=C/c2ccco2)C2CCS(=O)(=O)C2)cc1 (centres undefined)	?
Cc1c(C(N)=O)sc2ncn(CC(=O)OC(C)C)c(=O)c12	11.4%
NCCc1nnc(SCc2ccc(Cl)cc2)o1	3.4%
COc1ccc(C(=O)Cn2cnc3ccccc3c2=O)cc1	4.9%
CN1CCN(C(=S)C(=O)Nc2ccc(Br)cc2)CC1	?
CCCc1nn(C)c(C(=O)Nc2ccc(C(C)(C)C)cc2)c1Cl	8.6%
CC(C)CN(C(=O)c1cccc([N+](=O)[O-])c1)c1c(N)n(CC(C)C)c(=O)[nH]c1=O	-6.8%
COc1ccc2nc(NC(=O)Nc3ccccc3OC)sc2c1	2.4%
CC(=O)Nc1ccc2c(c1)nc(CCN1CCN(c3ccccn3)CC1)n2C	-24.7%
O=C(NCCCN1CCCC1=O)c1cc(S(=O)(=O)N2CCOCC2)c(Cl)cc1Cl	5.2%
COc1ccccc1/C=C/C=N/N1CCN(c2ccccn2)CC1	5.0%
COc1ccc(N(CC(=O)NCc2ccc(C)cc2)S(=O)(=O)c2c(C)[nH]c(=O)[nH]c2=O)cc1	-2.6%&-14.7%
CCCCOC(=O)Nc1nc2ccc(OC)cc2s1	1.1%
O=C(NCc1ccco1)c1cc(-c2cccnc2)nc2ccccc12	4.2%
N#CCSc1nc(N)c(C#N)c(C2CCCCC2)c1C#N	0.1%
CCOC(=O)c1c(C)[nH]c(C(=O)COC(=O)c2oc3ccccc3c2C)c1C	3.6%
CC(C)NCCCCOc1cccc(Br)c1	?
Additional entries follow:
SMILES	VDR inh
COP(=O)(c1ccc(N(C)C)cc1)C(O)c1ccccc1 (centres undefined)	-7.1%
Cc1ccc(Oc2ccc(Oc3ccc(C)cc3)nn2)cc1	-21.5%
CCc1ccc(OCC(=O)Nc2cc3oc4ccccc4c3cc2OC)cc1	5.7%
Cc1sc(N/N=C/C=C/c2ccccc2)nc1-c1ccccc1	-4.4%
NC(=O)C1CCN(C(=O)CN2CCN(c3cccc(C(F)(F)F)c3)CC2)CC1	-6.5%
C/C(=N\NC(=O)c1ccc(O)cc1)c1ccc(N2CCOCC2)cc1	4.1%
Cc1ccc(F)cc1NC(=O)CSc1nc(Nc2ccccc2)nc(N2CCOCC2)n1	5.5%
CCc1cc2c3c(c(=O)oc2cc1OC)CCCC3	4.7%
Cc1ccc(C2=CC(c3ccc(C)cc3)n3ncnc3N2)cc1 (centres undefined)	0.9%
COc1ccccc1-n1c(SCC(=O)N2CCOCC2)nc2ccccc2c1=O	-3.6%
CCC(Cn1nnc2ccccc2c1=O)NC(=O)Nc1ccc(C)cc1C (centres undefined)	-1.3%
Cc1nc2nc(COc3ccccc3)[nH]n2c(=O)c1C	-7.0%
COc1ccc(C)cc1NC(=O)C(OC(=O)c1cnc(C)cn1)c1ccccc1 (centres undefined)	-12.7%
Cc1ccc(Sc2ncccc2/C=N/O)cc1	3.4%
CCOCCCNC(=O)C1CCN(C(=O)N(C)C)CC1	15.9%
O=C(CN1C(=O)NC2(CCCc3ccccc32)C1=O)Nc1ccccc1OC(F)F (centres undefined)	-14.9%
CC(C)n1ncc(N2CCOCC2)c(Cl)c1=O	6.6%
Cc1cc2c(cc(C(=O)OCC(=O)NCc3ccco3)n2C)s1	8.9%
Cc1ccnc(NC(=O)CNC(=O)c2cccs2)c1	-10.2%
CC(C)NC(=O)/C(C#N)=C/c1ccc2c(c1)OCCO2	8.4%
CCCn1c(C(C)Nc2nc(-c3cccc(Br)c3)cs2)nc2ccccc21 (centres undefined)	-8.7%
COc1ccc(-c2nc3ccc(Cl)cn3c2Nc2ccc(C)cc2)cc1	-5.4%
Cc1ccc2nc(C)c(Cl)c(=O)n2c1	10.9%
C[C@]12CCC3C(CC[C@H]4CC(O)CC[C@]34C)C1CC/C2=N/NC(=O)c1ccncc1 (some centres undefined)	10.0%
Cc1ccc(NC(=O)NCc2cccnc2)cc1	25.8%
The listing continues.
SMILES	VDR inh
COc1ccc(CC(=O)Oc2ccc(C)cc2C)cc1	-8.5%
Cc1nnc(SCC(=O)NC2CCCCC2C)s1 (centres undefined)	1.4%
Cc1[nH]n(-c2cccc3ccccc23)c(=O)c1C=Nc1ccc2[nH]c(=O)[nH]c2c1	3.9%
CCC(=O)N1c2ccc(S(=O)(=O)NCc3cccc(OC)c3)cc2CC1C (centres undefined)	-13.8%
CCOC(=O)C1=C(O)/C(=C\c2ccc(O)c(OCC)c2)N=C1C	-16.4%
Cc1[nH][nH]c(=O)c1N=Nc1ccc(S(N)(=O)=O)cc1	-17.6%
N#CCCn1c(SCC(=O)NCC2CCCO2)nc2ccccc21 (centres undefined)	-8.4%
Cc1ccc(-n2cc3ccc([N+](=O)[O-])cc3n2)cc1	2.5%
Cc1ccc(S(=O)(=O)N(C)c2ccc(OC(=O)CN3C(=O)NC(C)(c4ccccc4)C3=O)cc2)cc1C (centres undefined)	-4.6%
COc1c(Cl)cc(Cl)cc1C(=O)Nc1ccc(CN2CCOCC2)cc1	-10.0%
O=C(CNS(=O)(=O)c1ccccc1)Nc1ccccc1Br	-21.5%
CC(=O)Nc1ccc(NC(=O)[C@H](C)NC(=O)c2ccco2)cc1	7.7%
Cc1cc(C)c(C)c(/C=C(/C#N)C(N)=S)c1C	3.3%
O=C(Nc1ccc(C(=O)N2CCC(N3CCOCC3)CC2)cc1)c1ccc(Br)o1	-24.8%
Cc1cccc(C(C)C)c1NC(=O)CSc1ncnc2[nH]ncc12	1.8%
COc1ccc(Cl)cc1NC(=O)CCN1CCN(Cc2ccccc2)CC1	-1.9%
CCOC(=O)c1ccc(NC(=O)CSc2nnc(CNC(=O)c3c(F)cccc3Cl)o2)cc1	3.7%
COc1ccccc1N1CCN(S(=O)(=O)c2ccc(Br)s2)CC1	4.1%
COc1ccc(N)c2c1OCCC2=O	-2.8%
CCOCCCNC(=O)C1CCC(CNS(=O)(=O)c2ccc(NC(C)=O)cc2)CC1 (centres undefined)	11.9%
O=C1CN(S(=O)(=O)c2ccccc2C(F)(F)F)CCN1	12.5%
Cc1ccc(C)c(N2CCN(C(=O)c3c4c(nc5ccccc35)C(=O)N(C3CCCCC3)C4)CC2)c1	-2.4%
CC(C)CN(C(=O)C1COc2ccccc2O1)c1c(N)n(CC(C)C)c(=O)[nH]c1=O (centres undefined)	4.0%
Cc1ccc(-n2c(N)c(C(=O)N3CCOCC3)sc2=S)c(C)c1	79.4µM*
O=C(c1cccc(F)c1)N1CCC(N2CCOCC2)CC1	17.2%
CCc1ccc(C(=O)/C=C/Nc2ccc(S(=O)(=O)Nc3cnc4ccccc4n3)cc2)cc1	0.7%&-13.4%
O=C(NN1CCOCC1)c1sc2cccc(F)c2c1Cl	13.7%
COc1ccc2c(-c3ccccc3)cc(SCC(=O)NC3CCS(=O)(=O)C3)nc2c1 (centres undefined)	-14.6%
O=S1(=O)CCO[C@H]2Cc3ccccc3[C@H]2N1Cc1ccc(F)cc1	4.3%

High-throughput results from PubChem BioAssay.
